Bioassay records as filed in PubChem.
2A StopGo = High Throughput Screening for Foot and Mouth Disease Virus Antivirals. Potency, µM (series often up to 57.9 µM), for the others: at the highest dose signal change, negative = less light. 1.2% of 410,000 active. human cells with a luciferase reporter of 2A StopGo recoding; control for the full effect not named in the record; active = well fitted falling curve with a large enough effect; inconclusive = small, poorly fitted or top-dose-only effect; inactive = no such curve, though single readings can be large or run the other way; tested in HEK293T cells; note: % is set by controls: 0 for no effect and ±100 for the full control effect; nearly all actives have a fitted effect of over 45% in size; luciferase light after 4 h
LASV entry inh = qHTS for Inhibitors of binding or entry into cells for Lassa Virus; Lassa virus pseudotype entry inhibition, cell reporter; control for the full effect not named in the record; 1.2% of 300,000 active; Potency, µM (highest dose often 37.9 µM), for the others: at the highest dose activity change, negative = inhibition, actives largely listed as inhibitors; active means well fitted inhibition curve with a large enough effect; inconclusive means small, poorly fitted or top-dose-only effect, or effect the other way; inactive means flat fitted curve, though single readings scatter; tested in HEK293 cells; note: % is set by controls: 0 for no effect and ±100 for the full control effect; nearly all actives have a fitted effect of over 50% in size; luciferase read-out
RE007 growth inh = qHTS Assay for Inhibitors of the HIV-1 protein Vpr; S. pombe RE007 Vpr strain, BacTiter-Glo ATP luminescence, 24 h; control for the full effect not named in the record; Potency, µM (top dose mostly 92.2 µM), for inactives: top-dose activity change, negative = less growth; 0.21% of 360,000 active; AID 651644, 2012; active = well fitted falling curve with a large enough effect; inconclusive = small, poorly fitted or top-dose-only effect; inactive = no such curve, though single readings can be large or run the other way;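 note: % is set by controls: 0 for no effect and ±100 for the full control effect; nearly all actives have a fitted effect of over 50% in size; the assay follows cell death caused by Vpr and the record does not say whether a fall means rescue or toxicity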
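Fission yeast strain RE007, carrying one chromosomally integrated HIV-1 vpr copy, was seeded at OD 0.01 in PMG+AL medium with 23 nL pinned compound. After 24 h at 30 °C and 99% humidity, viability was read by BacTiter-Glo luminescence.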
Cruzain Triton = qHTS Assay for Promiscuous and Specific Inhibitors of Cruzain (with detergent). Cruzipain (Trypanosoma cruzi), P25779. purified cruzain, Z-FR-AMC fluorescence, 0.01% Triton. Potency, µM, for the others: max response, negative = inhibition, actives largely listed as inhibitors. 0.43% of 200,000 active; active = well fitted curve in the direction sought with a large enough effect; inconclusive = small, poorly fitted or top-dose-only effect, or another doubt; inactive = no such curve, though single readings can be large; an effect the other way counts as inactive or inconclusive;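 note: plate controls were neutral wells for no effect and buffer without enzyme for full effect; nearly all actives have a fitted effect of over 40% in size; top concentration of the series not given in the record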
Target sequence (P25779 123-467 limits assumed): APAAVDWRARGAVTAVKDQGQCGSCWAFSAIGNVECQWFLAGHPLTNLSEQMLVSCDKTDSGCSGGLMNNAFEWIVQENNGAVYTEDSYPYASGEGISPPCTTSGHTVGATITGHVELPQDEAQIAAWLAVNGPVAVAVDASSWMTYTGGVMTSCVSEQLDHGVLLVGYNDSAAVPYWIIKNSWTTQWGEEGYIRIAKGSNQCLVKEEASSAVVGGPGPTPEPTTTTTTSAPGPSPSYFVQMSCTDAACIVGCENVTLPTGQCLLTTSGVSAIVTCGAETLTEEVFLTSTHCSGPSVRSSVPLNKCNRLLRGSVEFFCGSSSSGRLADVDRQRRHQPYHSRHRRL
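Cruzain (1.5 nM) preincubated 15 min at RT with compound in 100 mM sodium acetate pH 5.5, 5 mM DTT, 0.01% Triton X-100. Reaction started with 2 uM Z-FR-AMC; AMC fluorescence (ex 360/em 450 nm) change over 60 s gave rate.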
NS1 function inh = qHTS Assay for Inhibitors of Influenza NS1 Protein Function. S. cerevisiae slowed by influenza A NS1, growth recovery by OD600. Potency, µM (highest dose often 46.1 µM), for the others: at the top dose activity, positive = more growth. 0.4% of 270,000 active. AID 2326, 2010; note: actives are rising curves; nearly all actives have a fitted effect of over 50% in size
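Read-out: OD600 growth recovery of NS1-expressing budding yeast. Cells grown overnight at 30C in -URA glucose medium, washed, resuspended and diluted 1:100 in 2% galactose assay medium, pH 6.0. Same strain lacking NS1 served as positive control.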
SARS PLP yeast = qHTS of Yeast-based Assay for SARS-CoV PLP; Potency, µM (top dose mostly 32.9 µM), for inactives: at the highest dose activity, positive = growth rescue; S. cerevisiae expressing SARS-CoV PLpro, growth rescue; control for the full effect not named in the record; 0.19% of 330,000 active; note: 0% is about no effect; nearly all actives have a fitted effect of over 55% in size; growth read by luminescence after 48 h
MARV entry inh = qHTS for inhibitors of binding or entry into cells for Marburg Virus; Marburg virus pseudotyped entry inhibition, cell reporter; control for the full effect not named in the record; about a third of the inactives were read at about 46 µM; Potency, µM (doses to about 37.8 µM), for inactives: at the highest dose activity change, negative = inhibition, actives largely listed as inhibitors; 1.8% of 300,000 active; AID 540276, 2011; active = well fitted inhibition curve with a large enough effect; inconclusive = small, poorly fitted or top-dose-only effect, or effect the other way; inactive = flat fitted curve, though single readings scatter; tested in HEK293 cells; about a fifth of its hits are not listed in these tables; note: % is set by controls: 0 for no effect and ±100 for the full control effect; luciferase read-out
Cruzain inh noDet = qHTS Assay for Promiscuous and Specific Inhibitors of Cruzain (without detergent); purified cruzain, Z-FR-AMC fluorescence, no detergent; 2.3% of 200,000 active; Cruzipain (Trypanosoma cruzi), P25779; Potency, µM, inactives show max response, negative = inhibition, actives largely listed as inhibitors; AID 1476, 2009; active = well fitted curve in the direction sought with a large enough effect; inconclusive = small, poorly fitted or top-dose-only effect, or another doubt; inactive = no such curve, though single readings can be large; an effect the other way counts as inactive or inconclusive;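 note: plate controls were enzyme without inhibitor for no effect and buffer without enzyme for full effect; nearly all actives have a fitted effect of over 40% in size; top concentration of the series not given in the record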
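Detergent-free condition (0.00005% Triton X-100) in acetate buffer pH 5.5 with DTT. 1.5 nM enzyme and compound were pre-mixed 15 min, then 2 uM Z-FR-AMC substrate added; reaction progress from fluorescence change between first and third reads (60 s).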
Active calls of the source: *; ? = inconclusive; nt = no result given; & = joins results of further samples; [ ] = another dose, or the depositor's remark. Unless noted, calls come from the whole dose curve; as a rule, active means well fitted rising curve with a large enough effect; inconclusive means small, poorly fitted or top-dose-only effect; inactive means no such curve, though single readings can be large or run the other way. Potency is the fitted concentration of half-maximal effect.

The opening four records, ahead of the listing:
SMILES	2A StopGo	LASV entry inh	RE007 growth inh	Cruzain Triton	NS1 function inh	SARS PLP yeast	MARV entry inh	Cruzain inh noDet
COc1cccc(N2CCN(C(=O)CN3C(=O)NC(C)(c4ccc5ccccc5c4)C3=O)CC2)c1 (stereo not drawn)	?	?	-1%	nt	nt	-2%	?	nt
COc1ccc(Cn2cc(S(=O)(=O)c3ccc(C)cc3)c(=O)c3cc(F)ccc32)cc1	46%[activator]	1%[46.1 µM]	nt	-1.3%	nt	nt	?	0%
COc1ccccc1CNC(=O)c1ccc(Br)o1	14%	20%	11%	1.1%&1.1%	-17%	-24%	-5%	-6%&-8%
O=c1ccccn1Cc1ccccc1F	-10%	-7%	14%	0.1%	-12%	2%	10%	12%

Results (from the top)
SMILES	2A StopGo	LASV entry inh	RE007 growth inh	Cruzain Triton	NS1 function inh	SARS PLP yeast	MARV entry inh	Cruzain inh noDet
COc1cccc(N2CCN(C(=O)CN3C(=O)NC(C)(c4ccc5ccccc5c4)C3=O)CC2)c1 (stereo not drawn)	?	?	-1%	nt	nt	-2%	?	nt
COc1ccc(Cn2cc(S(=O)(=O)c3ccc(C)cc3)c(=O)c3cc(F)ccc32)cc1	46%[activator]	1%[46.1 µM]	nt	-1.3%	nt	nt	?	0%
COc1ccccc1CNC(=O)c1ccc(Br)o1	14%	20%	11%	1.1%&1.1%	-17%	-24%	-5%	-6%&-8%
O=c1ccccn1Cc1ccccc1F	-10%	-7%	14%	0.1%	-12%	2%	10%	12%
C#CC1CCCCC1NC(=O)Nc1cnccc1C(F)(F)F (stereo not drawn)	-5%	5%	4%	nt	2%	1%	-15%	nt
COc1cccc(N2CCN(C(=O)CN3C(=O)NC4(CCCC4)C3=O)CC2)c1	-3%	?	12%	nt	4%	5%	?	nt
CCOc1cc(/C=N/n2cnnc2)cc(Br)c1O	-10%	13%	-23%	-4.6%	-1%	1%	-5%	?
Cc1oc(=O)c(NC(=O)c2ccccc2)cc1C(=O)c1ccccc1	-22%	?	20µM*	3.2µM*	-107%	-29%	2%	0.79µM*
Cn1c(=O)[nH]c(=O)c2c1nc(N1CCOCC1)n2CCSc1nnnn1-c1ccccc1	1%	nt	10%	nt	2%	2%	nt	nt
COc1ccc(CCN(C)C(=O)c2c(C)nn(CC(C)C)c2Cl)cc1OC	-14%	9%	10%	nt	-6%	-2%	1%	nt
COc1ccc(C(=O)Nc2ccnn2C2CCN(Cc3ccn[nH]3)CC2)cc1	-11%	nt	-7%	nt	-6%	27%	nt	nt
O=C(CNc1cccc(C(F)(F)F)c1)N/N=C/C1CCCCC1	-11%	-17%	-2%	-9.5%	5%	-6%	1%	8%
COc1ccc(-c2noc(CNC(=O)Nc3ccc(F)cc3)n2)cc1	-9%	-19%	-4%	nt	2%	0%	-9%[46.1 µM]	nt
Cc1cccc(NC(=O)CSc2nnnn2-c2cccnc2)c1	nt	8%	3%	4.2%	-2%	3%	-5%	0%
O=C(Nc1cccnc1N1CCOCC1)c1ccco1	11%	-14%	20%	2.9%	3%	1%	15%[46.1 µM]	-9%
CC(=NCCN1CCOCC1)c1c(O)n(-c2ccccc2C)c(=O)[nH]c1=O	12%	-1%	13%	1.8%	7%	7%	-11%	1%
COc1ccccc1OCCCCn1c(-c2ccc(Cl)cc2)nc2ccccc2c1=O	0%	31%[46.1 µM]	nt	0.5%	nt	nt	4%[46.1 µM]	12%
CC1=Nc2ccccc2/C1=C/c1sc(=N)n(-c2nccs2)c1O	?	10µM*	-1%	-9.8%	-77%	-30%	10µM*	-3%
CCn1cnc2c1c(=O)n(CC(=O)NN)c(=O)n2Cc1ccccc1	-9%	nt	12%	nt	10%	1%	nt	nt
CCc1cccc(NC(=O)Cc2cn(C)c3ccccc23)c1	10%	-29%	-17%	-5.5%	-53%	-22%	?	1%
CC(C)(C)c1ccc(-c2cc(C(=O)NNC(=O)Nc3ccccc3)c3ccccc3n2)cc1	?	5.6µM*	-25%	-3.1%	13%	-6%	?	?
Cc1cccc2nc(CSc3nc4ccccc4[nH]3)cn12	9%	6%[46.1 µM]	-10%	nt	-7%	1%	?	nt
CC1(C)CC(=O)c2cc(OCC(=O)NCc3cccnc3)ccc2O1	-2%	-4%	-3%	-3.6%	5%	3%	12%	7%
CCc1ccccc1NC(=O)N(C)CCc1c(C)nn(C)c1C	0%	4%[46.1 µM]	nt	7.2%	nt	nt	2%[46.1 µM]	0%
CCNCc1ccc(OCc2ccccc2F)c(OC)c1	0%	nt	-16%	nt	0%	0%	nt	nt
COc1ccc2oc(C(=O)OC(C)C(=O)NC3(C#N)CCCCC3)c(C)c2c1 (stereo not drawn)	-14%	10%	-11%	nt	nt	1%	-6%	nt
COC(=O)CNC(=O)c1nn(-c2cccc(OC)c2)c(=O)c2ccccc12	-9%	19%	4%	-0.9%	-15%	3%	1%	-1%
O=C(NCc1ccccc1Cl)C1CCC(=O)N(C2CCCC2)C1 (stereo not drawn)	35%[activator]	6%[46.1 µM]	-1%	nt	3%	-1%	1%[46.1 µM]	nt
COc1ccc2c(CC(=O)Nc3c(C)n(C)n(-c4ccccc4)c3=O)coc2c1	-12%	25%	18%	-3.0%	10%	19%	16%[46.1 µM]	-2%
O=C(Nc1ccccc1)C1=C[C@H](c2ccc3c(c2)OCO3)C[C@H](OCCCCO)O1	45%[activator]	nt	-9%	nt	-6%	-2%	nt	nt

In a second layout: entries from further up
Molecule,2A StopGo,LASV entry inh,RE007 growth inh,Cruzain Triton,NS1 function inh,SARS PLP yeast,MARV entry inh,Cruzain inh noDet
CCc1cccc(NC(=O)Cc2cn(C)c3ccccc23)c1,10%,-29%,-17%,-5.5%,-53%,-22%,?,1%
CC(C)(C)c1ccc(-c2cc(C(=O)NNC(=O)Nc3ccccc3)c3ccccc3n2)cc1,?,5.6µM*,-25%,-3.1%,13%,-6%,?,?

(next part)
SMILES	2A StopGo	LASV entry inh	RE007 growth inh	Cruzain Triton	NS1 function inh	SARS PLP yeast	MARV entry inh	Cruzain inh noDet
CC(C)C[C@H](NC(=O)N1CCn2c1nc1ccccc12)C(=O)NC1CCCCC1	8%	nt	-5%	nt	-4%	12%	nt	nt
Cc1ccc(F)cc1NC(=O)c1cccc(N(C)C)c1	27%	?	0%	-2.3%	-19%	-3%	-3%	-5%
CCOC(=O)C1(CC2CC2)CCN(C(=O)c2cc(OC)nc3ccccc23)CC1	4%	?	12%	nt	-4%	1%	?	nt
NC(=O)C1CCN(Cc2nc3cc(Cl)ccc3c(=O)[nH]2)CC1	-22%	25%	-10%	-2.5%	8%	3%	4%	0%
COc1ccc2c(c1)c1c(c(=O)n(Cc3ccccc3)c(=O)n1Cc1ccccc1)n2C	-19%	6%[46.1 µM]	nt	0.1%	nt	nt	nt	-1%
CCc1cccc(NC(=O)CCNS(=O)(=O)c2cccc3nonc23)c1	11%&53%	-1%	8%	-5.4%	nt	1%	?	-3%
COc1cc(Cl)cc(C2NC(=S)NC(c3ccccc3)=C2C(C)=O)c1OCC(=O)O (stereo not drawn)	16%	1%	-1%	nt	18%	0%	22%[46.1 µM]	nt
COCCOCCOCCC(=O)NC1CC2CCC1(C)C2(C)C (stereo not drawn)	-3%	3%	-3%	7.9%	-1%	2%	-1%	-4%
CC(C)OC(=O)c1c(NC(=O)c2ccco2)sc2c1CCCC2	20%	0%	3%	-14%	-2%	-7%	3%	-12%
O=C(CSC1=Nc2ccccc2C2=NC(Cc3ccccc3)C(=O)N12)Nc1ccccc1C(F)(F)F (stereo not drawn)	20%	-29%[46.1 µM]	nt	-6.2%	nt	nt	nt	-2%
CCOc1ccc2nc(NC(=O)Cn3[nH]c(=O)c4ccccc4c3=O)sc2c1	43%[activator]	nt	-15%	nt	0%	-1%	nt	nt
COc1ccc(Br)cc1[C@H]1[C@@H]2C=CCC[C@@]2(C)C(=O)N1Cc1ccccc1	?	nt	14%	nt	-65%	-18%	nt	nt
CCC(CO)Nc1ncnc2onc(-c3ccc(F)cc3)c12 (stereo not drawn)	-19%	?	8%	nt	0%	0%	-1%[46.1 µM]	nt
CCN1CCN(Cc2ccc(NC(=O)c3ccc(C)c(NC(=O)c4cc(-c5ccc(Br)cc5)n[nH]4)c3)cc2C(F)(F)F)CC1	-30%	nt	-11%	nt	11%	0%	nt	nt
CCCC(=O)Nc1nc2c(s1)CC(C(C)(C)C)CC2 (stereo not drawn)	55%[activator]	-3%[46.1 µM]	nt	0.0%	nt	nt	20%[46.1 µM]	-9%
COc1ccc(C(=O)N(Cc2ccc(N(C)C)cc2)C2CCS(=O)(=O)C2)cc1 (stereo not drawn)	-15%	11%	15%	2.7%	-13%	7%	-5%[46.1 µM]	9%
Cc1coc2c(O)cc3c(c12)OC1(N2CCCCC2)C(=O)NCCCC31 (stereo not drawn)	?	?	-17%	-12%	?	-3%	?	-25%
CC/C(=N/NC(=O)c1ccccc1)c1ccc(OCCN2CCOCC2)cc1	4%	9%	18%	0.3%	19%	3%	-10%	3%
COc1ccc(NC(=S)Nc2ccc(OCc3ccccc3)cc2)c(OC)c1	0%	-10%	-6%	-2.0%	18%	-44%	?	?
Cc1nn(C)c(C)c1Sc1ccc(Br)cc1	?	-6%	-10%	0.2%	-94%	-1%	-18%	1%
O=C(Nc1cccc(F)c1)Nc1ccccn1	47%[activator]	?	-3%	2.4%	-21%	2%	?	-7%
